# Source: PubChem
# CapD inh = inhibitors of Bacillus anthracis CapD enzyme; purified CapD enzyme, fluorescence intensity read-out; stronger effect = lower value; some hits fall short of the stated cut; z-score (no concentration beside the values); 140,000 compounds, 0.23% hits; AID 492967;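 active means z-score under -4 in either of two replicates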;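 further: stock transfer was 100 nL into about 40 µL; score is relative to mean and spread of the plate; one replicate is shown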
# AID504770 = growth inhibitors of E. coli YBA685 in a screen for V. cholerae RctB (chromosome II replication) inhibitors; E. coli YBA685 rctB-dependent plasmid, OD600 growth, 3 h; stronger effect = lower value; z-score (no concentration beside the values); 130,000 compounds, 0.27% hits; AID 504770;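 active means z-score under -2 on both plates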;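 further: wells of about 30 µL received 100 nL stock; score is relative to mean and SD of the test wells; the first replicate is given; strong numbers were not always called active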
# Starred values were filed as active, the others as inactive; . = not tested or not shown.
molecule	AID504770	CapD inh
CCOC(=O)C1=NN(c2ccccc2OC)C2C(=O)N(c3ccc(Br)cc3)C(=O)C12 (stereo not given)	-0.35	-0.15
O=c1c(-c2ccc(Cl)cc2)coc2cc(O)ccc12	0.7	-0.2
N=C1SCC(=O)N1Cc1ccccc1	-2.1	.
CN1C(N)=NC(=O)/C1=C/c1cccnc1	-0.25	0.15
CN1CCN(C(=O)CSc2c(-c3ccccc3)c3cc(Cl)ccc3[nH]c2=O)CC1	-1	-0.79
COc1ccc(CCNC(=O)CN2N=C(c3ccc(C)cc3)CCC2=O)cc1OC	0.35	-1
Fc1cccc(Cl)c1COn1c(-c2ccccc2)nc2ccccc21	.	0.72
O=C(Nc1ccc(F)cc1)Nc1ccc(N2CCOCC2)c2nonc12	-0.8	-0.35
O=C(NCC1CC1)c1cccnc1Oc1ccccc1	.	-0.045
CC(C)C(NC(=O)c1ccc(F)cc1)C(=O)N1CCC1 (stereo not given)	0.25	.
Cc1nn2c(=O)c3ccc(C(=O)O)cc3nc2s1	1.1	-0.045
CCn1c(N)c(N(C)CCOc2ccccc2)c(=O)[nH]c1=O	0.45	.

# Given with values under each structure: entries from further up.
# Order of results – AID504770	CapD inh
> COc1ccc(CCNC(=O)CN2N=C(c3ccc(C)cc3)CCC2=O)cc1OC
    0.35	-1
> Fc1cccc(Cl)c1COn1c(-c2ccccc2)nc2ccccc21
    .	0.72
> O=C(Nc1ccc(F)cc1)Nc1ccc(N2CCOCC2)c2nonc12
    -0.8	-0.35
> O=C(NCC1CC1)c1cccnc1Oc1ccccc1
    .	-0.045
> CC(C)C(NC(=O)c1ccc(F)cc1)C(=O)N1CCC1 (stereo not given)
    0.25	.
> Cc1nn2c(=O)c3ccc(C(=O)O)cc3nc2s1
    1.1	-0.045
> CCn1c(N)c(N(C)CCOc2ccccc2)c(=O)[nH]c1=O
    0.45	.

# (further entries)
molecule	AID504770	CapD inh
CN1c2ccccc2N(C)C1c1cccs1	-1	.
CCn1nc(C)cc1-c1nnc(SCc2c(Cl)cccc2Cl)o1	-0.5	-1.3
O=C(CCC1CCCCC1)Nc1ccc2c(c1)OCCO2	0.1	-0.24
CCCOc1ccc(/C=C(\C#N)C(=O)NC(N)=O)cc1OCC	2	.
COc1ccc(C2CC(c3cccs3)=NN2C(=O)CSc2nnc(CNC(=O)c3ccco3)n2C)cc1 (stereo not given)	.	1.8
O=C(Nc1ccc(-c2cn3ccccc3n2)cc1)c1cccs1	.	13
CCCCn1c(N)c(N(CC)C(=O)c2ccccc2)c(=O)[nH]c1=O	0.65	.
Cc1ccc(C(=O)NC(c2ccccc2)c2ccccc2)o1	0.05	.
CN(C(=O)COC(=O)c1cncc(Br)c1)C1CCCCC1	-0.3	-0.74
C=CCn1cc(C=C2C(=O)OC(c3ccccc3)OC2=O)c2ccccc21 (stereo not given)	-0.75	-1.1
CC(=O)OCC(=O)Nc1cccc(C)c1	0	-0.045
O=C(Nc1nc2ccccc2n1Cc1ccccc1Cl)c1ccccc1	.	5.4
CNC(=S)Nc1ccc(C(=O)OC)cc1	3	-0.44
C=CCSc1nnc(Cc2cc(=O)[nH]c(=O)[nH]2)n1-c1ccc(OC)cc1	1.2	5.4
O=C(Nc1cccnc1)c1cc(-c2ccc(Br)cc2)nc2ccccc12	.	-0.89
CC1(C(=O)c2ccccc2)C2c3ccccc3OC(=O)C21C(=O)N1CCOCC1 (stereo not given)	-0.25	1.2
Cc1cc(=O)[nH]c(SCc2cn3ccccc3n2)n1	-1.4	0.64
COc1ccc(C2=NN(C(=O)CSc3nnc(CNC(=O)c4cccs4)n3C)C(c3ccc(F)cc3)C2)cc1 (stereo not given)	.	-0.98
CCOC(=O)C1CCCN(C2CC(=O)N(c3cc(Cl)ccc3OC)C2=O)C1 (stereo not given)	0	.
C/C(=N\Nc1c(Cl)cc(Cl)cc1Cl)c1ccc(C#CCC2CCCCC2)s1	.	-0.53
COc1ccc(N2CCN(S(=O)(=O)c3cc(C(=O)Nc4ccccc4Cl)ccc3F)CC2)cc1	.	-0.3
CCSc1nsc(NC(=O)Nc2cccc(F)c2)n1	-2.8*	.
Cc1nc(COc2cccc(Cl)c2)sc1-c1ccnn1C(=O)C1CC1	0.65	0.25
Cc1ccc2c(c1)n([O-])c1c([n+]2=O)CCCC1	-0.75	0.14
CCNCC(=O)Nc1c(C)cccc1C	.	0.41
O=C(OCCc1ccccc1F)N1CCC(O)C1 (stereo not given)	.	-0.47
CC(=O)Nc1ccc(-n2c(/C=C\c3cccc(C(F)(F)F)c3)nc3ccccc3c2=O)cc1	.	2.4
COc1cc(OC)nc(N2CCN(C(=S)Nc3cccc(Cl)c3)CC2)n1	.	-0.59
COC(=O)CSc1nnc(CNc2ccc(Cl)cc2)n1-c1ccc(OC)cc1	0.95	.
CC1=C(C(=O)OCC2CCCCC2)C(c2ccc(OCc3ccccc3)cc2)NC(=O)N1 (stereo not given)	.	1.1
Nc1nnc(SCC(=O)OCc2ccccc2)s1	-0.95	.
COc1ccc(N2CC(O)(c3ccc(Cl)cc3)[N+]3=C2CCCC3)cc1 (stereo not given)	.	-0.26
COc1cc(C(O)c2nccn2C)cc(OC)c1OC (stereo not given)	-0.6	-0.07
CC(CC(=O)NC1CCCCCC1)CC1=NS(=O)(=O)c2ccccc2N1 (stereo not given)	0.3	0.41
CCCCn1c(CCNC(=O)C(C)C)nc2ccccc21	-0.1	0.46
NS(=O)(=O)c1ccc(CCNC(=O)CCCn2ncn3c(cc4occc43)c2=O)cc1	0.3	-0.98
COc1cc2c(cc1OC)C(c1ccccc1)N(C(=O)C(C)(C)C)CC2 (stereo not given)	-0.05	0.94
O=C(c1cc(-c2ccc(F)cc2)n[nH]1)N1CCN(c2cccc(Cl)c2)CC1	-0.5	0.98
Cc1cc2[nH]c(=O)[nH]c2cc1S(=O)(=O)N1CCOCC1	-0.5	0.03
O=c1oc2ccccc2cc1-c1nc2ccccc2o1	0.1	69
Cc1sc2ncnc(N(C)Cc3ccco3)c2c1C	1.3	.
COC(=O)c1ccc(NC(=O)Cn2nc(SC)n(N)c2=S)cc1	2.2	-0.4
CCN(CC)C(=O)CCn1nc(-c2ccc(C)cc2)c2ccccc2c1=O	-0.2	-0.34
CN1C(=O)CC(NCc2ccc(S(N)(=O)=O)cc2)C1=O (stereo not given)	-0.6	.
CCOC(=O)c1c(Sc2ccccc2)cnn1C(=O)c1ccc(C(F)(F)F)cc1	-1.1	10
Cc1ccc(N2CCN(S(=O)(=O)c3cc(F)c(Br)cc3F)CC2C)cc1 (stereo not given)	.	-0.53
Cn1ncc(COC(=O)Nc2c(Cl)cccc2Cl)c1C(F)(F)F	-0.2	0.42
CN1C(=O)c2ccc(-c3ccc(C=C4C(=O)NC(=O)NC4=O)o3)cc2C1=O	-1.3	0.25
CSc1nc2c(C)c(C)c(C)c(C)c2[nH]1	-0.2	0.27
N#C/C(=C\C1=C(N2CCOCC2)C(=C\c2ccccc2)/CC1)c1nnc2n1CCCCC2	-1	.
CC(C1CC1)N(CC(F)(F)F)C(=O)c1cc(S(=O)(=O)N(C)C)ccc1N1CCCC1 (stereo not given)	-0.8	.
COC(=O)c1c(C)[nH]c(C)c1/C=C(\C#N)S(=O)(=O)c1ccc(C)cc1	-0.6	-0.66
O=C1COc2ccc(N3Cc4ccccc4C3)cc2N1	0.25	0.22
CC1(C)C2CC[C@]3(C)C(C(=O)C=C4[C@@H]5C[C@@](C)(C(=O)O)CC[C@]5(C)CC[C@]43C)[C@@]2(C)CC[C@@H]1O (stereo not given in full)	0.8	0.21
O=C(OCn1nnc2ccccc2c1=O)C1CCCCN1S(=O)(=O)c1ccccc1 (stereo not given)	-0.4	.
S=c1n(CN2CCCCC2)nc(-c2cccc(Br)c2)n1-c1ccccc1	.	-0.21
CCC(=O)NCc1cc(-c2nn(C)c(=O)c3ccccc23)ccc1OC	0.55	.
Cc1ccc(C)c(C2=C/C(=C3/c4ccccc4-c4ncccc43)C(=O)O2)c1	.	-0.2
CC1=CC(c2ccccc2)n2nc(N3C(=O)c4ccccc4C3=O)nc2N1 (stereo not given)	-0.45	-0.095
CN(Cc1cccs1)C(=O)Cc1ccc2c(c1)OCCO2	-2.3	.

# Entries of single compounds, looked up by structure. Order of values: AID504770, CapD inh
# `CCn1nc(C)cc1-c1nnc(SCc2c(Cl)cccc2Cl)o1` is listed with -0.5, -1.3
# `CN1c2ccccc2N(C)C1c1cccs1` is listed with -1, .

# (listing goes on)
molecule	AID504770	CapD inh
Cc1c(NS(=O)(=O)c2cc(Br)cc3c2N(C(=O)C2CC2)CC3)c(=O)n(-c2ccccc2)n1C	-0.45	-0.48
CC(=O)N(C)c1ccc(N=Cc2ccc(O)cc2)cc1	-0.1	-1.3
C/C(=N\O)c1cc2cc(Cl)ccc2oc1=O	-0.45	.
COc1ccc(CCNC(=O)c2c[nH]c3ccc(S(=O)(=O)N(C)Cc4ccccc4)cc3c2=O)cc1OC	.	0.92
CC(C)(NCCNC(C)(C)P(=O)(O)O)P(=O)(O)O	.	0.09
CO[C@@H]1C[C@@H](C[C@H]2CC[C@H](C)[C@H]([C@@H](C)C(=O)O)O2)O[C@]2(O[C@](C)([C@H]3CC[C@@](C)(C4O[C@@H](C5O[C@@](O)(CO)[C@H](C)C[C@@H]5C)C[C@@H]4C)O3)C[C@H]2C)[C@@H]1C (stereo not given in full)	.	-0.29
Cc1ccc(-c2[nH]nc3c2C(c2ccccc2)C2=C(CC(C)(C)CC2=O)N3)cc1 (stereo not given)	3	41
Cc1ccc(-n2nc(C)c(/C=N/NC(=O)Cc3nc4ccccc4n3C)c2Cl)cc1	-0.25	.
COC(OC)C12c3ccccc3C(c3ccccc31)C1C(=O)N(CCO)C(=O)C12 (stereo not given)	.	5.9
Nc1c([N+](=O)[O-])c(=O)oc2ccccc12	.	-1.2
CN(C)CCNC(=S)Nc1ccc(F)c(Cl)c1	-0.55	0.82
COc1ccc2c(c1)c(=O)c1ccccc1n2CC(=O)Nc1ccc(OC)c(OC)c1	.	-1.1
CCOC(=O)c1c(NC(=O)c2cc([N+](=O)[O-])cc([N+](=O)[O-])c2)sc2c1CCN(C(=O)OCC)C2	.	-0.59
O=C1Cc2cc(S(=O)(=O)NCc3ccccc3Cl)ccc2N1	0.4	0.33
O=C(Nc1ccc2c(c1)OCO2)c1cn(-c2ccccc2)nc1-c1cccs1	0	.
CCc1onc(C)c1C(=O)Nc1ccc(Br)cc1F	-0.2	.
O=C(O)Cn1cccc1C(=O)c1ccccc1	0.75	-0.91
CC(=O)Nc1nnc(SCC(=O)N2C(C)CCCC2C)s1 (stereo not given)	-0.25	.
O=C(CCC(=O)N1CCSc2ccccc21)N1CCN(c2ccccc2)CC1	2.5	-0.32
O=C(CCN1CCCCC1)Nc1ccccc1	2	.
Cc1cc(-c2ccccc2)o[n+]1C	0.8	-0.4
CC(=O)NC(C(=O)Nc1nc(-c2ccc(C)s2)cs1)C(C)C (stereo not given)	2.5	.
N/C(=N\O)c1cc(C(F)(F)F)cc(C(F)(F)F)c1	.	0.68
CCN(CC)C(=O)Cn1nc(-c2ccc(Cl)cc2)c2ccccc2c1=O	0.1	-0.035
O=C(Nc1nc2c(s1)CCc1ccccc1-2)c1ccc(S(=O)(=O)N2CCc3ccccc32)cc1	.	0.095
CCc1ccc(S(=O)(=O)N2CCn3cccc3C2c2ccc(Cl)cc2)s1 (stereo not given)	-0.15	.
O=C(O)c1cccc(Cn2c(Cl)c(/C=N/NC(=O)c3ccncc3)sc2=O)c1	-0.7	.
Cc1c(Cl)cccc1-n1c(SCC(=O)NCC2CCCO2)nc2n[nH]c(C)c2c1=N (stereo not given)	3	-0.15
O=C1N=C(N2CCCCC2)S/C1=C/C1=Cc2ccccc2OC1	0.1	0.12
CN(CCC#N)C(=O)c1cc2cccnc2n(Cc2ccccc2)c1=O	-0.65	.
O=C(Nc1ccncc1)c1ccc2c(c1)S(=O)(=O)c1ccccc1C2=O	-1.4	.
Nc1cccc(-c2nnc(-c3cccc(N)c3)o2)c1	0.65	7.2
Cc1sc(NC(=S)NC(=O)c2ccco2)c(C#N)c1C	0	-0.05
NC(Cc1nc2ccccc2[nH]1)c1cccnc1 (stereo not given)	-0.4	.
COc1cccc(CNC(=O)c2[nH]c(C)c(C(=O)NC3CCCCC3)c2C)c1	2.2	-0.24
Cc1ccc2c(c1)c(=O)c1ccccc1n2CC(=O)Nc1cc(Oc2ccccc2)cc([N+](=O)[O-])c1	.	1.5
Cc1csc(N2C(=O)C=CC2=O)c1C(=O)c1ccccc1	-0.75	-1.7
COc1cc(Nc2ncnc3c2cnn3-c2ccc(C)cc2C)cc(OC)c1OC	.	-0.12
Cc1ccc(CNC(=O)CC2=NS(=O)(=O)c3ccccc3N2)cc1	0.15	-0.51
O=C1c2ccccc2-c2onc3c(Br)cc(Sc4ccccc4)c1c23	.	-0.39
Cc1cccc(NC(=O)N2CCC(CN3CCc4ccccc4C3)CC2)c1	-0.8	-0.07
COc1cccc2c1OC(c1cccc(Cl)c1)N1N=C(c3cccnc3)CC21 (stereo not given)	.	-1.1
C=CCNC(=O)CN1C(=O)c2cccnc2Sc2ccccc21	0.75	-0.28
O=C(Cn1cnc2ccccc2c1=O)c1ccc2c(c1)OCCO2	-0.25	.
